High-throughput results as filed in PubChem.
FGF22 binding: FGF22 (human) thermal shift binding; Q9HCT0; calls only at 9.99 µM; recombinant FGF22 thermal shift, SYPRO orange fluorescence; percent of sucrose octasulfate shift, DMSO zero; actives 1.5% (n = 340,000);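 active = melting point raised past a set limit in the mean and every replicate; three in four hits are not shown here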
Target sequence (Q9HCT0 whole entry, looked up): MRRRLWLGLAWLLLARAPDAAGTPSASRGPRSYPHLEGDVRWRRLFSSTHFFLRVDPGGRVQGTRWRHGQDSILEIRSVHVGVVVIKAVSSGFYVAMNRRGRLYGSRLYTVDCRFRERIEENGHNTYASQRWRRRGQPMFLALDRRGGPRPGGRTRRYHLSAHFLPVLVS
MLL AF4-AF9 inh: MLL-AF4/AF9 protein interaction inhibition; inhibition, % at 10 µM; actives 0.47% (n = 350,000); AID 651704; P42568; AlphaScreen, biotin-AF4 peptide binding to FLAG-AF9;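 active = every replicate reaching a set inhibition limit, whatever the replicate mean, cut at about 25% in these data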;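 also: 0% = plate neutral control median and 100% = total signal loss; the record names both 10 and 1 µM as test concentration; the first replicate is given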
Target sequence (P42568 whole entry, looked up): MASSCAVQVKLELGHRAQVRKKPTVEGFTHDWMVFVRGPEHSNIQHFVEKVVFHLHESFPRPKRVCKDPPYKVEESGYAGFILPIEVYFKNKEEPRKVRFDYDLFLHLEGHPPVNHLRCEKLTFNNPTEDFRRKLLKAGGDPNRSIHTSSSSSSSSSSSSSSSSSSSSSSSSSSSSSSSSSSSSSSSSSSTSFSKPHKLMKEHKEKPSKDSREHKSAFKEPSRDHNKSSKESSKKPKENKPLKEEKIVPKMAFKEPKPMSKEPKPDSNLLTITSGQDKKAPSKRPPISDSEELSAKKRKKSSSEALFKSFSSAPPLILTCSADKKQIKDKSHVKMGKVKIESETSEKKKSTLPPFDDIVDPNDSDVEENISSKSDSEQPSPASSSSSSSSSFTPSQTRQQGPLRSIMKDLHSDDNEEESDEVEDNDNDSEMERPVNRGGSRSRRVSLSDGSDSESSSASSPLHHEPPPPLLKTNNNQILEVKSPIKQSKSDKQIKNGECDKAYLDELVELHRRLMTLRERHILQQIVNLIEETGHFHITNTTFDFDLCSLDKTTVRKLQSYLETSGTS
* = called active by the depositor; i = inactive.

SMILES	FGF22 binding	MLL AF4-AF9 inh
Cc1cccc(NC(=O)C(C)Sc2ncnc3sccc23)c1 (configuration not stated)	i	-2.4
COc1ccc(CNC(=O)Nc2nc(C(N)Cc3ccc(F)cc3)cs2)cc1 (configuration not stated)	i	9.8
O=C(CSc1nnc(-c2cccnc2)o1)Nc1ccc(F)cc1	i	-2.8
C[C@H]1CN([C@@H](C)CO)S(=O)(=O)c2ccc(-c3cccc(C#N)c3)cc2O[C@@H]1CN(C)Cc1ccccn1	i	2.4
C[C@H]1CN([C@@H](C)CO)C(=O)Cc2cc(NS(C)(=O)=O)ccc2O[C@@H]1CN(C)Cc1ccc(-c2ccccc2)cc1	i	5.8
CCn1c(SCC(=O)N(C)C2CCCCC2)nc2cc(S(N)(=O)=O)ccc21	i	-1.7
COc1ccc([C@@H](OC(=O)Nc2ccc(SC)cc2)[C@@H](CCO)OC)cc1O	i	4.6
CO[C@@H]1CN(C)C(=O)c2cc(NC(=O)C3CCCC3)ccc2OC[C@@H](C)N(S(=O)(=O)c2ccc(Cl)cc2)C[C@H]1C	i	3.2
[N-]=[N+]=Nc1ccccc1C[C@@]1(C(=O)NCc2ccccc2)N=C(c2ccc(OCCCO)cc2)O[C@@H]1c1ccccc1N=[N+]=[N-]	i	-0.4
C[C@@H]1CN([C@@H](C)CO)C(=O)Cc2cc(NC(=O)Nc3cccc4ccccc34)ccc2O[C@@H]1CN(C)Cc1ccncc1	i	1.2
Cn1cnc(S(=O)(=O)N2CCCCN3[C@@H](CO)[C@H](c4ccc(C#CC5CC5)cc4)[C@@H]3C2)c1	i	0.4
O=C([C@@H]1CCCN1C1=NS(=O)(=O)c2ccccc21)N1CCN(c2ccccc2)CC1	i	-1.9
CCS(=O)(=O)N[C@H]1CC[C@H](CC(=O)N2CCCCC2)O[C@H]1CO	i	-4.5
COc1ccc(-n2nc3c(c2NC(=O)c2ccccc2)CS(=O)(=O)C3)cc1	i	-1.1
C[C@H]1CN([C@@H](C)CO)C(=O)Cc2cc(NC(=O)NC3CCCCC3)ccc2O[C@H]1CN(C)Cc1ccc2c(c1)OCO2	i	-0.2
CCCC(=O)Nc1ccc2c(c1)OC[C@@H](C)N(C(=O)c1ccccn1)C[C@@H](C)[C@H](OC)CN(C)C2=O	i	-29.3
Cc1ccc(NC(=O)[C@@H]2CCCN2C(=O)c2cccs2)cc1S(=O)(=O)N1CCCCC1	i	1.7
O=C1N(CCS(=O)(=O)c2ccccc2)Cc2ccccc2C[C@@]12COC(c1ccc(OCCCO)cc1)=N2	i	-0.9
C[C@@H]1CN([C@@H](C)CO)C(=O)Cc2cc(NC(=O)CCCCCC(=O)Nc3ccccc3N)ccc2O[C@H]1CN(C)Cc1ccc2c(c1)OCO2	i	1.2
COc1cc(/C=C/C(=O)N2CCCC=CC2=O)cc(OC)c1OC	i	-11.4
COC(=O)c1cn(CC(=O)N2CCN(c3ccccc3)CC2)nn1	i	-1.2
CCOC(=O)N1C2C=CC(C2)N1C(=O)OCC	i	-1.8
Cc1ccccc1C(=O)N(C)[C@H]1C[C@H]2c3[nH]c4ccccc4c3CCN2C(=O)[C@H]1[C@H](C)O	i	0.4
O=C(NCc1nc2ccccc2[nH]1)C1=C[C@@H](c2coc3ccccc3c2=O)C[C@@H](OCCCCO)O1	i	-5.0
COc1cccc(Nc2nc(C(N)Cc3ccc(F)cc3)cs2)n1 (configuration not stated)	i	21.3

Part of the list above, as labelled records.
C[C@H]1CN([C@@H](C)CO)C(=O)Cc2cc(NS(C)(=O)=O)ccc2O[C@@H]1CN(C)Cc1ccc(-c2ccccc2)cc1
  FGF22 binding = i | MLL AF4-AF9 inh = 5.8
O=C(NCc1nc2ccccc2[nH]1)C1=C[C@@H](c2coc3ccccc3c2=O)C[C@@H](OCCCCO)O1
  FGF22 binding = i | MLL AF4-AF9 inh = -5.0

Remaining list, next part
SMILES	FGF22 binding	MLL AF4-AF9 inh
C=C[C@@H](CO)NS(=O)(=O)c1ccc(Br)cc1	i	-4.3
O=S(=O)(/N=S1\CC=CCN1S(=O)(=O)c1ccccc1)c1ccccc1 (configuration not stated)	i	4.4
C[C@@H]1CN([C@H](C)CO)C(=O)Cc2cc(NC(=O)Cc3ccccc3)ccc2O[C@@H]1CN(C)Cc1ccncc1	i	-1.7
O=C1Nc2ccccc2C1=Nc1ccc2[nH]c3ccccc3c2c1	i	4.8
CSc1ncccc1C(=O)OCC(=O)c1ccc(Cl)s1	i	-5.0
O=c1cc(-c2ccccc2)oc2c1ccc1ccccc12	i	0.1
COCC(=O)Nc1ccc2c(c1)OC[C@@H](C)N(C(=O)Cc1cccnc1)C[C@@H](C)[C@H](OC)CN(C)C2=O	i	-1.5
CC(C)C(N)c1csc(Nc2ccc(C(F)(F)F)cn2)n1 (configuration not stated)	i	6.9
COc1cccc(C(=O)NCC2CCCN(C(=O)Cc3cccc(C)c3)C2)c1OC (configuration not stated)	i	-2.8
Cc1ccc(CNC(=O)CSc2nnc(CNC(=O)c3ccc(F)cc3)o2)cc1	i	-1.1
NCCCC(C(=O)O)N(C(=O)OCc1ccccc1)C(=O)OCc1ccccc1 (configuration not stated)	i	-1.0
COCc1cn([C@H]2C[C@@H]3O[C@@H](CO)CC[C@@H]3O[C@@H]2CCc2ccc(-c3ccc(OC)cc3)cc2)nn1	i	0.0
OCc1ccccc1-c1nc(NCC2CC2)nc2ccsc12	i	-11.1
COc1ccc(CN2C[C@@H](CO)O[C@@H](n3cnc4c(NCc5ccc(F)cc5)ncnc43)C2)cc1	i	-6.2
CO[C@@H](CN(C)Cc1cc(F)ccc1F)[C@@H](C)CN(C(=O)Nc1ccc(C(F)(F)F)cc1)[C@@H](C)CO	i	1.6
COc1ccc(OC)c(S(=O)(=O)N2CCN(CC(O)CN3CCOCC3)CC2)c1 (configuration not stated)	i	1.7
COc1cc2ccc(=O)oc2c(O)c1O	i	0.9
COCCOC(=O)N1C(=O)[C@@]2(c3ccccc31)[C@H](C(=O)N1CCc3cc(OC)c(OC)cc3C1)[C@H]1C(=O)O[C@H](c3ccccc3)[C@H](c3ccccc3)N1[C@@H]2c1ccc(O)cc1	i	-0.1
COc1ccc(C#Cc2ccc3c(c2)[C@]2(C(=O)N3)[C@H](c3ccccc3OCCO)N3[C@H](c4ccccc4)[C@H](c4ccccc4)OC(=O)[C@H]3[C@@H]2C(=O)NC[C@H](O)c2ccccc2)cc1	i	-1.2
CC(C)NC(=O)Nc1ccc2c(c1)C(=O)N([C@H](C)CO)C[C@@H](C)[C@@H](CN(C)Cc1ccncc1)OCCCC[C@H](C)O2	i	-2.9
N#CCCn1cc(C(=O)CN2C(=O)NC3(CCc4ccccc43)C2=O)c2ccccc21 (configuration not stated)	i	-0.1
COc1ccccc1-c1cnc(C(O)c2cc(C)c(OC)c(C)c2)[nH]1 (configuration not stated)	i	2.8
CCOC(=O)[C@]12CCC=C1N(Cc1ccc(Cl)cc1Cl)C(=O)[C@H](CC(=O)NCc1ccccc1)C2	i	-1.3
COCCOC(=O)N1C(=O)[C@@]2(c3cc(C#CC4(O)CCCCCC4)ccc31)[C@H](c1ccc(OCCO)cc1)N1[C@H](c3ccccc3)[C@H](c3ccccc3)OC(=O)[C@H]1[C@@H]2C(=O)N1CCN(c2ncccn2)CC1	i	-2.1
C=CC1C2C(C)=CC(C3C(=O)N(C)C(=O)C32)N1Cc1ccc(OC)cc1 (configuration not stated)	i	-1.2

Three records drawn at random from the list so far:
SMILES	FGF22 binding	MLL AF4-AF9 inh
COc1cccc(C(=O)NCC2CCCN(C(=O)Cc3cccc(C)c3)C2)c1OC (configuration not stated)	i	-2.8
NCCCC(C(=O)O)N(C(=O)OCc1ccccc1)C(=O)OCc1ccccc1 (configuration not stated)	i	-1.0
COc1ccc(OC)c(S(=O)(=O)N2CCN(CC(O)CN3CCOCC3)CC2)c1 (configuration not stated)	i	1.7

The list goes on.
SMILES	FGF22 binding	MLL AF4-AF9 inh
N#Cc1ccc(S(=O)(=O)N2CCCCC2c2cc(C(=O)NCc3cccnc3)no2)cc1 (configuration not stated)	i	-0.4
CC1=NC(C)(C)CC2CCC(O)C12 (configuration not stated)	i	0.3
O=C(NCc1ccc(F)cc1)c1cc(S(=O)(=O)N2CCCCC2)ccc1N1CCOCC1	i	-1.3
COc1ccc(CNC(=O)N2CCc3nc(Nc4cc(OC)c(OC)c(OC)c4)ncc3C2)cc1	i	2.8
O=c1n2c(c(O)n1C1CCCCC1)C(c1ccccc1)=Nc1ccccc1C2	i	12.4
CC1(C)CCCC2(C)C1CCC1(C)OC(=O)CCC12 (configuration not stated)	i	-1.3
Cc1ccc(-c2ccc([C@@H]3[C@H](CO)N4CCCCN(C(=O)Nc5cccc(F)c5)C[C@@H]34)cc2)cc1	i	4.1
COc1cccc(-c2ccc(CC[C@H]3O[C@H]4CC[C@H](CO)O[C@H]4C[C@@H]3NC(=O)c3cnccn3)cc2)c1	i	-1.0
O=C(COc1ccccc1)c1ccccc1	i	-0.8
CC(C)N1C(=O)[C@@]2(Cc3ccccc31)c1ccccc1C(=O)N(C1CCCCC1)[C@H]2c1ccc(CO)cc1	i	-2.1
COCOc1cccc(CN2CCC2(C)C(=O)Nc2ccc(C)c(O)c2)c1 (configuration not stated)	i	0.1
O=C(NCc1ccccc1)c1ccccc1	i	-14.3
O=C1O[C@H](c2ccccc2)[C@H](c2ccccc2)N2[C@H]1[C@@H](C(=O)N1CCN(c3ncccn3)CC1)[C@]1(C(=O)Nc3ccc(C#CC4(O)CCCCCC4)cc31)[C@H]2c1ccc(OCCO)cc1	i	-1.2
CCOc1ccc(NC(=O)c2cccc(S(=O)(=O)NCc3cccnc3)c2)cc1	i	-1.8
CC(C)C(C=Cc1ccccc1)=NNS(=O)(=O)c1ccccc1	i	2.0
COc1cccc(Nc2nc(CN)cs2)n1	i	6.8
[O-][N+](=Cc1c(Cl)cccc1Cl)CC1(O)CCCCC1	i	-0.1
O=C(CN1CCN(Cc2ccccc2)CC1)Nc1cccc(Cl)c1Cl	i	2.0

Gathered by group: those above containing fluorine.
SMILES	FGF22 binding	MLL AF4-AF9 inh
COc1ccc(CNC(=O)Nc2nc(C(N)Cc3ccc(F)cc3)cs2)cc1 (configuration not stated)	i	9.8
O=C(CSc1nnc(-c2cccnc2)o1)Nc1ccc(F)cc1	i	-2.8
COc1cccc(Nc2nc(C(N)Cc3ccc(F)cc3)cs2)n1 (configuration not stated)	i	21.3
CC(C)C(N)c1csc(Nc2ccc(C(F)(F)F)cn2)n1 (configuration not stated)	i	6.9
Cc1ccc(CNC(=O)CSc2nnc(CNC(=O)c3ccc(F)cc3)o2)cc1	i	-1.1
COc1ccc(CN2C[C@@H](CO)O[C@@H](n3cnc4c(NCc5ccc(F)cc5)ncnc43)C2)cc1	i	-6.2
CO[C@@H](CN(C)Cc1cc(F)ccc1F)[C@@H](C)CN(C(=O)Nc1ccc(C(F)(F)F)cc1)[C@@H](C)CO	i	1.6
O=C(NCc1ccc(F)cc1)c1cc(S(=O)(=O)N2CCCCC2)ccc1N1CCOCC1	i	-1.3
Cc1ccc(-c2ccc([C@@H]3[C@H](CO)N4CCCCN(C(=O)Nc5cccc(F)c5)C[C@@H]34)cc2)cc1	i	4.1

This is a subset, so the mix of outcomes need not match the whole.
